Screens: PubChem BioAssay, several laboratories
GALR2 ag = GALR2 receptor agonists, primary screen, cell-based; Galanin receptor type 2 (Homo sapiens), O43603; 0.48% of 140,000 active; GALR2-expressing cells, agonist activation read-out; activation, %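 (tested at 5 µM)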;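 active means above mean plus 3 SD of all compounds, about 5% in these data, not always enough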;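 further: 0% = vehicle buffer wells and 100% = reference agonist at full effect; tested in CHO reporter cells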
Insulin prom inh = inhibitors of insulin promoter-driven GFP, primary screen, imaging, TRM-6 cells (human fetal islet line), eGFP reporter, cell count; reporter expression induced with tamoxifen; inhibition, % at 2 µM; 0.9% of 130,000 active;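 active means inhibition above the mean plus 3 SD, with well images judged a real hit on visual review, cut at about 60% in these data, passing the limit was not always enough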
RGS16-Gao = modulators of RGS16 binding to Galphao, primary screen, biochemical, human proteins, multiplexed bead flow cytometry | Regulator of G-protein signaling 16 (Homo sapiens) + Guanine nucleotide-binding protein … | bead-based flow cytometry RGS16-Galphao binding, fluorescence; actives lie on both sides | binding response (% of control), % at 10 µM | 0.38% of 220,000 active;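 active means below 25% or above 175%, edge rows of some plates excepted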;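 further: Galphao activated by GDP with aluminum fluoride before binding; 100% = wells without compound and 0% = beads without RGS; some results beyond the cut were filed as inactive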
PKD1 kinase inh = inhibitors of human PKD1 kinase, biochemical, fluorescence polarization; PKD1 kinase fluorescence polarization assay; inhibition, %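 (about 10 µM by stock and volumes)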; 0.056% of 200,000 active;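 active means inhibition of 50% or more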;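 further: controls were vehicle for no effect and a reference inhibitor for full effect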
Target sequence (Q15139 whole entry, looked up): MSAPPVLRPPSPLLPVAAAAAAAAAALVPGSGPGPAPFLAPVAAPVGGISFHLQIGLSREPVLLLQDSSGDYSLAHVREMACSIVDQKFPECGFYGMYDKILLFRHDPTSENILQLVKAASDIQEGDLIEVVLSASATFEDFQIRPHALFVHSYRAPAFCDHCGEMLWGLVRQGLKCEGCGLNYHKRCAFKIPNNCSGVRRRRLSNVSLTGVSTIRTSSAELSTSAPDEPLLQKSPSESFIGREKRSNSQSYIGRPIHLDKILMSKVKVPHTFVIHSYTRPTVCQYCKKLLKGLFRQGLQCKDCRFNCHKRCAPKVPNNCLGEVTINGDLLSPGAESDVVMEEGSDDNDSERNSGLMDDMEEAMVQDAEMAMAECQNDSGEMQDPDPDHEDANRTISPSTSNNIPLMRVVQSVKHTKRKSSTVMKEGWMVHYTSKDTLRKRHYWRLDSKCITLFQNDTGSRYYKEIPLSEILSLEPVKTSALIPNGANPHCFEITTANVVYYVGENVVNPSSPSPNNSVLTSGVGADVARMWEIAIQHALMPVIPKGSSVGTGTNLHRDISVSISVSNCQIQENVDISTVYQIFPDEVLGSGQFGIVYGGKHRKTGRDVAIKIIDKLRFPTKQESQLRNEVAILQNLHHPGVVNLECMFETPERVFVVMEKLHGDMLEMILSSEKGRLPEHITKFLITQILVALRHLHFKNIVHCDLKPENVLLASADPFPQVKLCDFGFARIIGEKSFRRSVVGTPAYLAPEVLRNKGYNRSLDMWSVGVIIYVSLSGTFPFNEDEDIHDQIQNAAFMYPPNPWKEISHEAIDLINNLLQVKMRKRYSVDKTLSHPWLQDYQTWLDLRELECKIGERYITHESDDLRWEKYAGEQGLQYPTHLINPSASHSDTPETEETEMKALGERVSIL
HSV augment = enhancers of HSV replication in host cells, fold increase, host cell viability; HSV replication augmentation in cells; AID 1956, 2009; 0.005% of 220,000 active; maximum fold increase;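 active means peak rise of 1.5-fold or more in the series; tested in PC3 cells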;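 further: first round at 10 µM; read as green reporter fluorescence; hits show the peak of a series up to 25 µM; 1 = signal of infected wells without compound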
Insulin prom inh cell count = second read-out of Insulin prom inh, no call of its own (marks repeat the call); normalized cell count, %; measured here: cell count, toxicity; reference of the scale not given here;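 cells exposed to compound for 48 h; stained nuclei by imaging scaled within each plate; lower means fewer cells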
HSV augment primary fold = second read-out of HSV augment, no call of its own (marks repeat the call); fold increase; compound at 10 µM; measured here: primary screen fold increase 10 uM; tested in PC3 cells;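 GFP signal in the first replicate; 1 = infected wells without compound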
* = called active by the depositor; i = inactive; . = not tested or not shown. Not a hit list; any-hit rate near 1.1%.

SMILES	GALR2 ag	Insulin prom inh	Insulin prom inh cell count	RGS16-Gao	PKD1 kinase inh	HSV augment	HSV augment primary fold
Cc1cccnc1NC1(C(F)(F)F)N=C(c2ccccc2)NC1=O (centres undefined)	-3.9	-20	92	100	2	i	0.94
COc1cscc1C(N)=O	.	.	.	102	.	i	1.1
CCOC(=O)CCc1c(C)nc2cc(C3CCCN(C(=O)OC(C)(C)C)C3)[nH]n2c1=O (centres undefined)	-0.5	-29	118	106	-10	.	.
Cc1ccc(-n2c(=O)c3c(n4cnnc24)-c2ccccc2CC32CCCCC2)cc1	-0.3	14	83	118	5	i	0.86
O=C1Cc2ccccc2C(c2ccc(Cl)cc2)N1 (centres undefined)	.	.	.	95	.	i	0.81
CCc1nc2ccc(C(=O)Nc3ccc4c(c3)OCO4)cc2nc1CC	.	29	83	99	-4	i	0.8
CCN(C(=O)c1sc(N)c(C#N)c1C)C1CCCCC1	-2.6	-7	135	99	5	i	0.95
S=c1[nH]nc(-c2cc(-c3ccccc3)n[nH]2)n1/N=C/c1ccccc1	.	.	.	101	.	i	0.9
Cc1ccc(N2C(=O)N(CC(=O)N3CCOCC3)C(=O)C2C)cc1 (centres undefined)	.	19	98	163	1	i	0.95
COc1c([N+](=O)[O-])c(=O)oc2ccccc12	0.4	.	.	104	-1	i	1.1
Cc1ccc(NC(=O)NC2=NN(c3ccccc3)C(=O)/C2=C2/CCCN2C)cc1	.	.	.	92	3	i	0.94
CC1(C)CC(=O)C(C=NCC2CCN(C(=O)Nc3ccc(Cl)c(Cl)c3)CC2)=C(O)C1	0.0	35	140	103	5	i	0.83
CCc1ccccc1NC(=S)N(Cc1ccc(C(=O)O)cc1)Cc1ccc(OC)c(OC)c1	.	.	.	102	0	i	1.1
CCC(=O)Nc1cc(-c2nn3c(C)nnc3s2)ccc1C	-1.8	.	.	100	-6	i	1
OC(C#CCN1CCCC1)(c1ccccc1)c1cccc(F)c1 (centres undefined)	-1.3	46	116	125	1	.	.
CCn1nnc(-c2ccccc2NC(=O)c2ccc(-n3cnnn3)cc2)n1	-1.2	49	48	105	-5	i	0.76
NC(=O)CSCc1cccc(Br)c1	-1.1	.	.	106	-17	i	0.83
Cc1cc(NC(=O)CCC(=O)N(CC(=O)NC2CCCC2)Cc2ccc3c(c2)OCO3)no1	.	-46	98	101	0	i	1
CCC(C)Sc1nnc(CSc2nc(C)cc(C)n2)n1C (centres undefined)	.	-56	125	104	-8	i	0.86
CCCOC(=O)C1=C(C)NC2=C(C(=O)CCC2)C1c1ccc(N(C)C)cc1 (centres undefined)	-1.5	.	.	104	-5	i	0.78
CC1=C(C(N)=O)C(c2cccs2)NC(=S)N1 (centres undefined)	.	.	.	100	8	i	0.95
CCOc1ccc(N2C(=O)CC(Sc3nc(C)cc(C)n3)C2=O)cc1 (centres undefined)	-2.5	.	.	99	-2	i	0.99
COc1ccc(CC(=O)N2CCN(C(=O)Cc3ccc(OC)cc3)CC2)cc1	-2.8	3	162	98	-2	.	.
CNC(=S)Nc1ccc(N2CCN(c3ccc(C(F)(F)F)cn3)CC2)nc1	.	.	.	98	.	i	0.96
Cc1nc2ccc(NC(=O)N(C(C)C)C(C)C)cc2s1	-1.3	57	100	124	-5	i	1.2

Only RGS16-Gao, for some of the entries so far:
| molecule | RGS16-Gao |
| --- | --- |
| Cc1cc(NC(=O)CCC(=O)N(CC(=O)NC2CCCC2)Cc2ccc3c(c2)OCO3)no1 | 101 |
| CCC(C)Sc1nnc(CSc2nc(C)cc(C)n2)n1C (centres undefined) | 104 |
| CCCOC(=O)C1=C(C)NC2=C(C(=O)CCC2)C1c1ccc(N(C)C)cc1 (centres undefined) | 104 |

Next section:
SMILES	GALR2 ag	Insulin prom inh	Insulin prom inh cell count	RGS16-Gao	PKD1 kinase inh	HSV augment	HSV augment primary fold
NC(=O)c1snnc1-c1ccccc1	.	.	.	98	.	i	0.97
CCCCCCCSc1nnc(-c2ccccc2N)c(=O)[nH]1	.	-9	100	134	2	i	0.86
CCOc1ccc(NC(=O)CSc2ccccc2N)cc1	.	.	.	94	-4	i	0.96
O=C(N/N=C/c1ccc(OCC(=O)N2CCOCC2)cc1)c1ccccc1Cl	.	18	132	98	9	i	0.93
COCCNC(=O)CN(C(=O)CCC(=O)Nc1ccccn1)c1ccc(F)cc1	-2.9	29	95	98	-2	i	0.97
O=C1CC(N2CCN(c3nc4ccccc4s3)CC2)C(=O)N1c1ccc(F)cc1 (centres undefined)	-0.3	38	99	104	-3	i	0.94
CCCCn1cnc2c1c(=O)n(C)c(=O)n2C	-0.6	20	165	103	-5	i	1
N#CC1(Cc2ccc([N+](=O)[O-])cc2)c2ccccc2C=CN1C(=O)c1ccccc1 (centres undefined)	-1.5	-28	66	102	-5	i	0.94
Cc1nc([N+](=O)[O-])c(N2CCN(C)CC2)n1Cc1ccccc1	-3.1	6	123	102	-8	i	0.99
O=C(CSC1=Nc2ccccc2C2=NC(CC(=O)NCc3ccco3)C(=O)N12)NCC1CCCO1 (centres undefined)	-0.4	10	89	115	3	i	0.89
COc1ccc(NCC(=O)Nc2ccc(Cl)cc2C)c(OC)c1	-2.0	-83	84	102	-3	i	0.85
OCCCNC(=S)Nc1ccc2nccnc2c1	.	.	.	106	-2	i	0.93
CCCCNCCCOc1ccc(C)cc1Br	.	.	.	98	-1	i	0.89
O=C(c1ccc(Cl)nc1)N1CCc2ccccc2C1	-1.6	17	93	99	-2	i	0.94
Cc1ccc(NC(=O)c2c(-c3ccccc3)noc2C)nc1	-2.1	19	48	121	-10	i	1
Cc1ccc(S(=O)(=O)CC2CSc3nnc(C)c(=O)n32)cc1 (centres undefined)	-1.6	62	123	96	-4	i	0.98
O=C(Cn1ncc(Cl)c(Cl)c1=O)N1CCN(S(=O)(=O)c2ccc3ccccc3c2)CC1	-1.2	.	.	101	7	i	0.68
COc1ccc(OC(=O)C2CC(=O)N(c3ccc(C)cc3)C2)cc1 (centres undefined)	.	.	.	104	7	i	0.83
CCNC(=O)COC(=O)c1ccc(-c2nc3ccccc3s2)s1	.	.	.	100	2	i	1
O=C(CN1C(=O)CCSc2ccccc21)Nc1ccc2c(c1)OCO2	-1.6	.	.	99	-10	i	1.3
Cc1ccc(OCCn2cnc3c(N)ncnc32)cc1	-0.4	3	89	105	-9	i	0.81
O=C(CCN1C(=O)c2ccccc2C1=O)Oc1ccc2ccccc2c1	-1.7	-21	150	96	-6	i	1
Cc1nccn1-c1ccc(C(F)(F)F)cc1NC=O	-0.3	-15	117	99	2	i	0.89
O=C(NC1CCN(Cc2ccccc2)CC1)C1COc2ccccc2O1 (centres undefined)	-0.7	.	.	96	-9	i	0.97
COc1cccc(C(=O)NCc2cccnc2)c1	-0.7	.	.	103	-5	i	0.95

Structures shown so far that have a nitro group on carbon:
SMILES	GALR2 ag	Insulin prom inh	Insulin prom inh cell count	RGS16-Gao	PKD1 kinase inh	HSV augment	HSV augment primary fold
COc1c([N+](=O)[O-])c(=O)oc2ccccc12	0.4	.	.	104	-1	i	1.1
N#CC1(Cc2ccc([N+](=O)[O-])cc2)c2ccccc2C=CN1C(=O)c1ccccc1 (centres undefined)	-1.5	-28	66	102	-5	i	0.94
Cc1nc([N+](=O)[O-])c(N2CCN(C)CC2)n1Cc1ccccc1	-3.1	6	123	102	-8	i	0.99

Next part:
SMILES	GALR2 ag	Insulin prom inh	Insulin prom inh cell count	RGS16-Gao	PKD1 kinase inh	HSV augment	HSV augment primary fold
Cc1c(C(=O)NCCc2ccc3c(c2)OCCO3)oc2ccccc12	-3.0	0	93	99	-3	i	0.68
CCC(C)(C(=O)NC1CCCC1)N(C(=O)CC1NC(=O)NC1=O)c1ccc(C)cc1 (centres undefined)	-0.8	-19	215	95	-6	i	1
Cc1cc(Cl)ccc1OCc1nc(-c2ccc(O)cc2)n[nH]1	-0.8	-271	119	80	4	i	0.94
CN(C)c1ccc(C(CC(=O)c2ccccc2)C2CCCCC2=O)cc1 (centres undefined)	0.2	.	.	101	0	i	1.5
Cc1[nH]c2ccccc2c1/C=C/c1nc2ccccc2c(=O)n1CCO	.	0	174	100	-4	i	0.77
COc1ccc(C)cc1NC(=O)CSc1nnc(-c2ccc(OC)c(OC)c2)n1N	-0.7	10	52	102	-4	i	0.87
Cc1cc(Nc2cccc(F)c2)nc(NCc2ccccc2)n1	0.4	.	.	104	56*	i	0.77
O=[N+]([O-])c1cc(/C=N\O)ccc1Oc1ccc(F)cc1	.	-9	155	102	1	i	0.56
CCc1nnc(SCc2ccc(OC)c(Br)c2)n1N	-1.1	12	125	33	-7	i	1
CCOC(=O)C1(Cc2cccc(OC)c2)CCCN(Cc2ccc(NC(C)=O)cc2)C1 (centres undefined)	.	.	.	104	2	i	0.94
CC(C)c1nnc(NC(=O)COc2ccccc2[N+](=O)[O-])s1	.	.	.	99	.	i	1.1
CCO[C@H]1OC(C(=O)N2CCN(Cc3ccc4c(c3)OCO4)CC2)=C[C@@H](c2ccccc2)[C@@H]1CCCO	.	.	.	99	7	i	1
CN(C)CCCN(C(=O)CCc1ccccc1)c1nc2ccc(Br)cc2s1	.	-47	72	106	-10	i	0.73
CCCCn1nnnc1NCc1ccc(N2CCCC2)cc1	-1.3	45	63	99	-7	i	1.1
NS(=O)(=O)c1cccc(NC(=O)COC(=O)Cc2ccc(Cl)cc2)c1	.	-7	74	58	0	i	1
COc1ccc(/C=C/C(=O)OCC(=O)c2c(N)n(C)c(=O)n(C)c2=O)cc1	-0.1	-67	67	104	-7	i	0.9
COc1ccc(N2C(=O)C(=O)/C(=C(/O)c3ccc(C)cc3)C2c2cccnc2)cc1 (centres undefined)	-1.9	-25	99	71	2	i	0.99
CS(=O)(=O)N1CCc2ccccc2C1	-0.7	-45	108	46	3	i	0.75
CC(C)c1ccc(NC(=O)NC2CCCCC2)cc1	-3.3	3	146	86	1	i	0.73
Cc1ccc(C(=O)NCC(=O)OCC(=O)c2c(N)n(C)c(=O)n(C)c2=O)s1	-0.8	.	.	101	9	.	.
COc1ccc2ncc(OC(C)=O)cc2c1	-0.6	.	.	114	-9	i	0.92
COc1ccc(N(C(=O)COc2ccc(C)cc2)S(=O)(=O)c2ccc(C)cc2)cc1	-0.7	14	97	117	-3	i	0.98
Cc1ccc(C)c(-n2nnnc2SCC(=O)NNC(=O)c2ccco2)c1	.	-5	86	101	2	i	1.1
Cc1cc(C(=O)NC(=S)Nc2cccc(NC(=O)C(C)C)c2)ccc1[N+](=O)[O-]	-0.5	45	104	96	-2	i	0.93
Cc1ccc(C(=O)c2coc3c2C(=O)C(=O)c2ccccc2-3)cc1	-1.7	52	170	99	1	i	0.8
SMILES	GALR2 ag	Insulin prom inh	Insulin prom inh cell count	RGS16-Gao	PKD1 kinase inh	HSV augment	HSV augment primary fold
COCC(C)N=CC1=C(O)CC(C)(C)CC1=O (centres undefined)	1.4	9	109	102	28	i	1.1
O=C(c1ccccc1)N1CCn2c1nc1ccccc12	.	.	.	100	3	i	0.61
CNC(=O)c1c2c(nc3ccc(Br)cc13)CCCC2	.	.	.	100	-8	i	0.82
CCCCNC(=O)Cn1cnc2sc(C)c(S(=O)(=O)N3CCN(c4ncccn4)CC3)c2c1=O	.	.	.	106	1	i	0.93
CCC1=C(OC(=O)N(CC)CC)N2C(=O)OC(=NCCc3c[nH]c4ccccc34)[C@]2(Cc2ccccc2)[C@H]2C1=CC[C@H]1C(=O)N(CC(=O)OC)C(=O)[C@H]12	.	.	.	99	.	i	0.84
O=c1cc(CN2CCN(Cc3ccccc3)CC2)c2cc(Cl)ccc2o1	-2.4	8	172	102	0	i	0.89
COc1ccccc1CNC(=S)Nc1ccc2nc(N3CCN(C)CC3)cc(C)c2c1	.	7	112	94	-1	i	0.74
COc1ccc(N(CC(=O)Nc2ccccc2F)S(=O)(=O)c2ccc(C)c([N+](=O)[O-])c2)cc1	.	18	59	96	-7	i	0.96
Cc1ccc(NC(=O)CN2C(=O)N/C(=C\c3cccnc3)C2=O)cc1	.	58	37	111	-5	i	0.95
Cc1ccc(C(=O)C2=C(O)C(=O)N(c3ncccn3)C2c2ccc(F)cc2)o1 (centres undefined)	.	.	.	100	.	i	1.1
COc1ccc(/C=N/NC(=O)c2cccc(NC(=O)c3ccccc3Cl)c2)c(OC)c1	.	-10	78	109	1	i	1

PKD1 kinase inh, hit marks shown above.
Compound,GALR2 ag,RGS16-Gao,PKD1 kinase inh,HSV augment primary fold
Cc1cc(Nc2cccc(F)c2)nc(NCc2ccccc2)n1,0.4,104,56*,0.77
